Calb FLC – C. albicans growth modulation with fluconazole; AID 1979; growth inhibition, % (concentration not given with the values); hit rate 0.57% among 300,000; C. albicans CaCi-2 (fluconazole-resistant clinical isolate) + fluconazole, Alamar Blue growth, 48 h;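 active = most replicates above 75%; inconclusive = exactly half above 75%; inactive = most below 75%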;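 also: all wells also contain fluconazole at 8 µg/ml as a sub-toxic cotreatment; 0% = median of DMSO wells and 100% = median of geldanamycin control wells; wells of about 8 µL received 7.5 nL stock; the first replicate is given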
Beta apoptosis – beta cell apoptosis inhibition; protection from apoptosis, % (test concentration not listed); AID 435005; INS-1E cytokine-induced death, ATP luminescence, 48 h; percent of positive-control rescue, neutral wells zero; hit rate 0.8% among 300,000;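 active = all replicates at 75% or more, or half of them and the mean; inconclusive = half reach 75% but not the mean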;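 also: 0% = cytokine-treated negative control wells and 100% = positive control rescue; higher means more ATP so stronger rescue from cytokine killing; wells of about 40 µL received 100 nL stock; the first replicate is given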
Vif A3G – HIV-1 Vif–A3G interaction blockers – biochemical, TR-FRET, GST-Vif 1-94, biotin-A3G peptide, dose response retest, primary screen (AID 1117319). TR-FRET GST-Vif / biotin-A3G peptide binding; higher % means a stronger effect; test concentration not given here; strong numbers were not always called active. inhibition, %, or IC50 in µM where a hit was titrated. hit rate 0.57% among 260,000;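 active = above the screen mean plus three standard deviations and confirmed in dose response; inconclusive = results disagree or hit not tested in dose response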;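 also: Vif residues 1-94 fused to GST binding biotinylated APOBEC3G peptide 110-148; 0% = full assay without inhibitor and 100% = GST in place of GST-Vif; retest series ran down from 100 µM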
MLL AF4-AF9 inh – blocks AF4 peptide binding to human AF9. inhibition, % at 10 µM. hit rate 0.47% among 350,000. AID 651704. AlphaScreen, biotin-AF4 peptide binding to FLAG-AF9. P42568;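 active = every replicate reaching a set inhibition limit, whatever the replicate mean, cut at about 25% in these data; inconclusive = mean inhibition reaches that limit but some replicates miss it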;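 also: 0% = plate neutral control median and 100% = total signal loss; the record names both 10 and 1 µM as test concentration; the first replicate is given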
Target sequence (P42568 whole entry, looked up): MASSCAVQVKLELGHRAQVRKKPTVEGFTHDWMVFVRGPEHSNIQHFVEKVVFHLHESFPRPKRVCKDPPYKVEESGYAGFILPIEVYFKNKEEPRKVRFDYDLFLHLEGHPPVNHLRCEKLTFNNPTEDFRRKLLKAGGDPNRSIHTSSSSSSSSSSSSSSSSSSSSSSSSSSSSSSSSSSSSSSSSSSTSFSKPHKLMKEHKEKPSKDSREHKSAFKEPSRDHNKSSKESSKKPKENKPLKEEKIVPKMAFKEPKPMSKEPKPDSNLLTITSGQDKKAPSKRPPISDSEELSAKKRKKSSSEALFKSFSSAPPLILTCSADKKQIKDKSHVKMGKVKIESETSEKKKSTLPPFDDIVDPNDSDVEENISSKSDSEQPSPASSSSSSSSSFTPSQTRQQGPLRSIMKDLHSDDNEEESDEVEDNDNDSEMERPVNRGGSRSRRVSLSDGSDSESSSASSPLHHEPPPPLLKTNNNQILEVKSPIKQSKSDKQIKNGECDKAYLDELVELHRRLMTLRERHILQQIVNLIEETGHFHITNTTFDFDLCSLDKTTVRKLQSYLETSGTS
Bfl-1 A1 inh – inhibitors of the anti-apoptotic protein A1, read as caspase activation; hit rate 0.066% among 330,000; MEF A1-2A-BIM cells, Caspase-Glo 3/7 luminescence, 3 h; percent of clofoctol response, vehicle zero; caspase activation, % (concentration not given with the values);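 active = over half of replicate activation scores above 10%, or exactly half above 10 with the replicate mean above 10; inconclusive = replicate mean below 10 yet half the replicates above 10; inactive = over half of replicates below 10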;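 also: wells of about 30 µL received 50 nL stock; many hits fall short of the cut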
T cruzi inh – T. cruzi replication inhibition; AID 1885; hit rate 1.4% among 300,000; T. cruzi beta-gal in NIH3T3, luminescence, 90 h; inhibition, % (no concentration beside the values);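 active = mean inhibition across valid replicates above about 55%, limit read from the data; inconclusive = mean below that limit but half or more replicates reach it; inactive = mean below it, under half of replicates reach it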;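 also: signal also drops with host cell toxicity which is not excluded here; 0% = plate median of DMSO wells and 100% = zero luminescence signal; higher percent means less beta-gal luminescence so fewer parasites; stock transfer was 50 nL into about 50 µL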
rRNA inh HTS – selective bacterial rRNA inhibition in E. coli; E. coli WT GFP vs humanized-ribosome RFP mutants, fluorescence, 24 h; stronger effect = lower value; DMSO median 0, no signal -100; hit rate 1.6% among 350,000; AID 720706; GFP signal change (wild-type ribosome), % (concentration not given with the values);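 active = significant combined selectivity score with lowered wild-type GFP, culture density cut under 30%, mutant RFP and density less affected; inactive = any of these conditions unmet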; also: one replicate is shown; some compounds called inactive have numbers as strong as hits
RanGTP-Imp inh – disruptors of Ran-importin-beta complex formation – biochemical, FRET, CFP-Ran, YFP-importin-beta, homogeneous, primary screen | inhibition, % (test concentration not listed) | hit rate 1.1% among 300,000 | AID 2216 | cell-free CFP-Ran/YFP-importin-beta FRET ratio;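 active = most replicates above 15%; inconclusive = exactly half above 15%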;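 also: 0% = DMSO wells and 100% = Ran loaded with GDP instead of GTP; wells of about 40 µL received 100 nL stock; the first replicate is given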
rRNA inh HTS OD600 – recorded beside rRNA inh HTS, whose call it bears; OD600 change, %; measured here: OD600 growth;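 optical density of the mix in the first replicate; 0 = DMSO median and -100 = no signal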
rRNA inh HTS RFP – also measured in rRNA inh HTS; calls as there; RFP signal change, %; measured here: RFP humanized mutant strains;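 first replicate; 0 = DMSO median and -100 = no signal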
Active calls of the source: *; ? = inconclusive; . = not tested or not shown; & = joins results of further samples. This is a subset (hit frequency here may not be typical).

SMILES	Calb FLC	Beta apoptosis	Vif A3G	MLL AF4-AF9 inh	Bfl-1 A1 inh	T cruzi inh	rRNA inh HTS	rRNA inh HTS OD600	rRNA inh HTS RFP	RanGTP-Imp inh
CCOC(=O)C(C)c1nc2ccccc2[nH]c1=O (stereo unspecified)	-3	-2	6%	.	1.4	-9	13	6	-0.1	-5.6
COC(=O)c1cc(=O)n(CCc2ccccc2)c(=Nc2ccc(F)cc2)s1	-7	10	13%	2.7	0.2	48	-5	5	-4.2	-3.0
COc1ccc(C/C(C)=N/NC(=S)Nc2ccccc2)cc1	-27	0	-11%	-0.9	0.3	-6	18	16	-1.9	?
CC[n+]1oc(-c2ccccc2)cc1C	-9	-5	16%	0.3	0.8	-9	14	5	-3.0	1.0
COc1cc(NC(=O)C2CC(c3c(F)cccc3Cl)=NO2)c(OC)cc1Cl (stereo unspecified)	3	.	.	3.1	-0.1	13	1	-16	-1.4	2.7
Cc1ccc(OCC(=O)NNC(=O)Cc2ccc(S(=O)(=O)N3CCOCC3)s2)cc1	7	-3	.	-3.1	0.5	-9	0	-3	0.9	6.3
CC(C)CNC(=O)CSc1nnc(-c2ccccn2)n1Cc1ccccc1	3	4	-9%	.	0.0	6	.	.	.	-1.3
CCOC(=O)[C@@H]1[C@H]2COc3ccccc3[C@@H]2N2C(=O)N(c3cccc(F)c3)C(=O)[C@]12C	4	.	.	3.6	0.5	-9	-17	-12	-14	-3.6
COC(=O)[C@@H]1C[C@@H]2CC[C@@H](O)C[C@@H]2N1Cc1ccccc1OS(=O)(=O)c1ccc(C)cc1	-12	-5	.	0.9	?	-7	4	-3	7.0	6.1
CCC(=O)Oc1cccc(C(=O)Nc2ccc(-c3nnc(-c4ccco4)o3)cc2)c1	-9	7	18%	.	-1.1	-12	.	.	.	0.3
Nc1ccc(SCCN2C(=O)c3ccccc3C2=O)cc1	103*	4	0%	.	-0.3	16	.	.	.	-2.4
O=C(c1cc(-c2ccc(F)cc2)nc2ccccc12)N1CCC1	.	-7	8%	-6.5	1.1	.	-14	-18	0.0	.
CCOC(=O)CC1C(=O)NCCN1C(=S)NC(=O)c1ccccc1OC (stereo unspecified)	3	3	.	-2.1	-1.0	-18	14	12	1.4	5.4
CCS(=O)(=O)CCSc1nc2ccccc2s1	-3	0	?	.	0.0	-11	.	.	.	-14
CCCOc1cccc(C2/C(=C(/O)c3ccc(F)cc3)C(=O)C(=O)N2CCN(C)C)c1 (stereo unspecified)	6	1	?	.	-1.5	5	.	.	.	-0.2
c1cc(-c2nnc3n2CCCCC3)ccn1	-4	-3	0%	.	-0.4	-9	.	.	.	0.2
FC(F)(F)c1ccc(Cl)c(-n2c(-c3ccco3)n[nH]c2=S)c1	11	4	-14%	2.6	1.2	3	-5	-7	-2.7	0.5
O=C(CC1C(=O)NCCN1Cc1ccc(-c2ccccc2)cc1)NCc1ccccc1 (stereo unspecified)	-1	-3	.	-1.7	-0.2	6	-28	-49	-2.1	-2.6
CC(C)(C)c1nnc(N/N=C/c2ccc(Br)cc2)n(N)c1=O	-1	-1	?	.	0.7	-10	.	.	.	-2.4
O=C(NCc1ccccc1)c1onc(CSc2ccncc2)c1C(=O)NCc1ccccc1	-6	7	.	0.0	1.5	-18	0	15	-2.9	?
COc1ccccc1NC(=O)c1cnc(SCC(=O)NCC2CCCO2)n(C)c1=O (stereo unspecified)	13	.	-5%	-26	0.0	-2	-2	3	-0.7	-1.3
CSc1ccccc1Nc1ncnc(N)n1	-7	-5	.	.	1.4	-7	8	2	-0.7	7.6
COc1cccc(NC(=O)Nc2cccn(Cc3ccccc3)c2=O)c1	-11	-2	-4%	.	-3.3	17	.	.	.	?
CCN(CC)c1ccc(NC(=O)CSc2n[nH]c(-c3ccco3)n2)cc1	-2	-2	-5%	3.9	0.2	7	-11	-18	5.2	-0.3
Cc1ccc2cc(/C=N/NC(=O)c3ccccc3O)c(Cl)nc2c1	-15	3	20%	.	-0.5	-2	.	.	.	-0.7
CN(C)C(=O)c1cc(C(=O)c2ccccc2Cl)c[nH]1	14	-1	-7%	-0.7	0.2	-12	4	6	-5.5	0.0
COc1ccc(NC(=O)C2CCCN(S(=O)(=O)c3c(C)[nH]c(=O)[nH]c3=O)C2)cc1Cl (stereo unspecified)	0	-8	6%	-1.0	-0.6	-13	9	13	6.1	-1.3
COc1cc(CN2CCNC(=O)C2CC(=O)NCc2csc(C(C)C)n2)cc(OC)c1 (stereo unspecified)	-7	-17	-1%	-2.2	1.6	5	10	12	-2.2	4.2
CCCC(=O)Nc1nc(-c2ccccc2)ns1	-3	-5	-10%	.	-1.0	-10	.	.	.	2.1
COc1cc2c(cc1NC(=O)CN(C)Cc1ccc(OC)c(OC)c1)oc1ccccc12	-10	11	.	-0.9	-1.2	50	-14	-5	-4.7	2.0
O=C(COC(=O)/C=C/c1ccc(C(F)(F)F)cc1)NCc1ccco1	27	-6	.	-0.5	-0.3	-9	5	0	-2.1	1.8
CCc1c(C)nc(N2CCN(c3ccc(F)cc3)CC2)[nH]c1=O	-13	-3	.	-8.3	0.3	8	4	10	4.6	1.9
Cc1ccc(N2C(=O)C3C(C(=O)c4ccccc4)=NN(c4ccccc4)C3C2=O)cc1 (stereo unspecified)	-9	-1	.	-7.2	0.2	-8	.	.	.	-113
O=C1CC(c2ccc(O)cc2)Oc2cc(O)cc(O)c21 (stereo unspecified)	6	1	10%	2.4&-7.2	-2.2	-13	.	.	.	-0.8
CN(C(=O)c1ccco1)c1nc2c(s1)CCCC2	2	9	-2%	.	-8.8	-4	.	.	.	3.7
CCOC(=O)Nc1c(C(=O)OC)[nH]c2cccc(OC)c12	-2	-3	9%	.	-0.2	.	.	.	.	-4.8

One compound at a time (already shown). Values in the order: Calb FLC | Beta apoptosis | Vif A3G | MLL AF4-AF9 inh | Bfl-1 A1 inh | T cruzi inh | rRNA inh HTS | rRNA inh HTS OD600 | rRNA inh HTS RFP | RanGTP-Imp inh
COc1cc2c(cc1NC(=O)CN(C)Cc1ccc(OC)c(OC)c1)oc1ccccc12 is listed as -10 | 11 | . | -0.9 | -1.2 | 50 | -14 | -5 | -4.7 | 2.0
CCOC(=O)C(C)c1nc2ccccc2[nH]c1=O (stereo unspecified) is listed as -3 | -2 | 6% | . | 1.4 | -9 | 13 | 6 | -0.1 | -5.6
CC(C)(C)c1nnc(N/N=C/c2ccc(Br)cc2)n(N)c1=O is listed as -1 | -1 | ? | . | 0.7 | -10 | . | . | . | -2.4
COC(=O)[C@@H]1C[C@@H]2CC[C@@H](O)C[C@@H]2N1Cc1ccccc1OS(=O)(=O)c1ccc(C)cc1 is listed as -12 | -5 | . | 0.9 | ? | -7 | 4 | -3 | 7.0 | 6.1
CC(C)CNC(=O)CSc1nnc(-c2ccccn2)n1Cc1ccccc1 is listed as 3 | 4 | -9% | . | 0.0 | 6 | . | . | . | -1.3

Other records follow.
SMILES	Calb FLC	Beta apoptosis	Vif A3G	MLL AF4-AF9 inh	Bfl-1 A1 inh	T cruzi inh	rRNA inh HTS	rRNA inh HTS OD600	rRNA inh HTS RFP	RanGTP-Imp inh
CCOc1ccc(N(CC(=O)N/N=C/c2ccc(OC(C)C)cc2)S(C)(=O)=O)cc1	-5	-1	3%	5.2	-0.6	5	-15	-8	8.2	0.3
Cc1ccc(NC(=O)CSc2nnc(CCNC(=O)OC(C)(C)C)o2)c(C)c1	-27	0	6%	.	?	-13	-7	-10	1.4	-2.9
Cc1[nH]nc2c1-c1nc3ccccc3nc1C(C)(C)C2	39	-8	19%	.	-0.4	13	.	.	.	7.0
Cc1ccccc1NC(=O)c1ccc2c(c1)OCCO2	0	-7	?	.	0.2	0	.	.	.	-0.8
CCOC(=O)C[n+]1ccc2c([nH]c3ccccc32)c1C	-2	5	.	-2.3	0.2	-8	7	10	1.8	9.3
NC(=O)COc1ccc(C(=O)NCC2(N3CCOCC3)CCCCC2)cc1	.	0	1%	2.4	0.1	.	20	10	3.4	.
COc1ccccc1-c1ccc(/C=C2/C=C(C)OC2=O)o1	0	-6	?	.	1.1	-9	.	.	.	-1.6
COc1ccc(N(CC(=O)Nc2ccc(C(N)=O)cc2)S(=O)(=O)c2ccc(C)c([N+](=O)[O-])c2)cc1	2	-11	-5%	-0.7	-0.6	5	3	12	-1.4	1.8
Cc1c(C(=O)N2CCN(CCc3ccccc3)CC2)oc2ccccc12	-5	-5	25%	.	-0.3	12	.	.	.	-2.3
COC(=O)c1ccc(/C=N/NC(=O)CC(=O)NCc2cccnc2)cc1	-10	-5	-10%	-3.0	0.1	-11	17	14	3.5	4.5
CC(=O)Nc1cccc(NC(=O)COC(=O)CO/N=C(\C)c2ccc3c(c2)OCO3)c1	-7	-2	.	1.1	0.1	9	-1	3	-1.6	-5.5
Cc1ccc(C)n1-n1cnc2sc3c(c2c1=O)CCC3	6	-6	15%	.	0.2	-11	.	.	.	5.7
Cc1ccc(NC(=O)COC(=O)CCc2c[nH]c3ccccc23)c(C)c1	.	-4	0%	4.3	-2.8	.	-6	-4	1.1	.
OC(CN1CCCCC1)Cn1c2ccc(Cl)cc2c2cc(Cl)ccc21 (stereo unspecified)	20	.	.	17	0.3	82*	-55	-75	-25	2.0
COC(=O)c1cc(C(=O)OC)n(Cc2ccc(F)cc2)n1	2	-8	3%	.	-0.6	-1	0	7	3.8	2.0
Cc1nn2c(N)csc2nc1=O	1	1	4%	.	-0.1	-3	.	.	.	1.6
CCOC(=O)C1(C/C(C)=N/NC(N)=O)CC(C)(C)OC1=O (stereo unspecified)	-11	-2	5%	5.6	-0.3	-7	7	15	2.9	-3.8
Cc1nn(C)c(C(=O)NC(=S)Nc2ccc([N+](=O)[O-])cc2)c1Cl	8	.	.	0.0	.	3	18	14	-1.7	-0.1
CCC(C(=O)N/N=C(\C)c1cccnc1)c1ccccc1 (stereo unspecified)	4	-4	4%	1.9	1.0	-3	3	5	1.0	1.2
COc1ccc(NC(C)=O)cc1NC(C)c1nc2sc(C)c(C)c2c(=O)[nH]1 (stereo unspecified)	2	14	-5%	1.7	-0.3	1	12	10	8.3	1.8
CCCCNC(=O)c1sc2nc(C)cc(COC)c2c1-n1cccc1	16	6	8%	.	-0.5	20	.	.	.	-0.3
CC1Nc2ncnc(N3CCc4ccccc4C3)c2N(Cc2ccc(Br)cc2)C1=O (stereo unspecified)	11	5	.	2.0	-1.1	24	1	-2	7.4	1.1
O=c1cc(N2CCOCC2)cnn1-c1ccccc1	-9	1	0%	0.0	-0.6	-2	10	9	0.7	-3.6
